CSC inhib: blocks cancer stem cells. cancer stem cell-like cells viability, luminescence. inhibition, % at 7.5 µM. 1.1% of 300,000 active. AID 2717;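 active = mean at 75% or more and at least half the replicates too; inconclusive = mean and replicates disagree; tested in HMLE shEcad cells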;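 also: 0% = median of negative and 100% = median of positive control wells; the first replicate is given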
UUG fidelity: alters start codon recognition fidelity in yeast | S. cerevisiae UUG-firefly luciferase reporter, luminescence/redox ratio | activity score, % at 18.7 µM | 0.13% of 350,000 active | AID 602363;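 active = replicate mean at a twofold rise or more, about +100% in these data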;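 also: firefly luciferase made from a UUG start codon reports start codon fidelity; reporter light over untreated wells divided by growth signal over untreated wells; some hits fall short of that in this replicate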
PABP FP inh: blocks human PABP binding to poly(A) RNA. P11940. fluorescence polarization. inhibition, % at 35 µM. 1% of 290,000 active;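 active = 50% or more with normal probe brightness, or confirmed in later tests; inconclusive = above 50% with abnormal brightness, or retests that disagree; inactive = below 50% or failed in later tests; about a fifth of its hits are not listed in these tables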;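 also: calls also rest on retests at 20 µM and on dose response follow-up; controls were probe without protein and protein plus probe with vehicle; some compounds called inactive have numbers as strong as hits; many hits fall short of the cut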
Target sequence (P11940 whole entry, looked up): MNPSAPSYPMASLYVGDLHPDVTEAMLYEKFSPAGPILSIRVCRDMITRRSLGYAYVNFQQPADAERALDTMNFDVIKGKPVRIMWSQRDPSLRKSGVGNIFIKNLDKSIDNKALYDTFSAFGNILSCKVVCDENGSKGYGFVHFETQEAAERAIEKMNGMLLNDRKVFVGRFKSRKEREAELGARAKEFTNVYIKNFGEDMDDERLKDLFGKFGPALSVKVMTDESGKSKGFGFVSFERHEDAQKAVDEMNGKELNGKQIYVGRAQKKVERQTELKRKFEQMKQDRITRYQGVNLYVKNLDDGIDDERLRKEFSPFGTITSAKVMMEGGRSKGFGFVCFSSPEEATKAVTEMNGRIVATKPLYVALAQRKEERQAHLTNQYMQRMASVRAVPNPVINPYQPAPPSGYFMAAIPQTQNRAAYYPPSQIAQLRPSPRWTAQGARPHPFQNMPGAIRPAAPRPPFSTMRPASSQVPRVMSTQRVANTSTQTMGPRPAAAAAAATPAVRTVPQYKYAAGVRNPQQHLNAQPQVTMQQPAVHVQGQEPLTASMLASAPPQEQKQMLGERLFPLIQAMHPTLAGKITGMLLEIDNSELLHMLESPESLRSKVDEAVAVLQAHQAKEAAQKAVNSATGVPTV
eIF4H FP inh: inhibitors of RNA binding by human eIF4H; inhibition, % at 35 µM; eIF4H fluorescence polarization binding assay; Q15056; 0.94% of 290,000 active; AID 2012;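 active = 50% or more with normal probe brightness, or confirmed in later tests; inconclusive = above 50% with abnormal brightness, or retests that disagree; inactive = below 50% or failed in later tests; about a fifth of its hits are not listed in these tables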;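 also: calls also rest on retests at 20 µM and on dose response follow-up; 0% = protein and probe with vehicle and 100% = probe without protein; strong numbers were not always called active; many hits fall short of the cut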
Env fusion inh: HIV envelope-mediated fusion inhibition | HeLa-JRFL Env/CEM21 cell fusion, luciferase | inhibition, % at 12.3 µM | AID 651610 | 1.1% of 360,000 active;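 active = mean replicate inhibition score of at least 50 and every replicate individually at or above 50; inconclusive = only one of the two criteria met; inactive = mean below 50 and not all replicates reaching 50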;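 also: 0% = plate neutral controls and 100% = maraviroc near 300 nM; one replicate is shown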
Rce1 inh: inhibitors of yeast Ras-converting enzyme; AID 2563; calls only; 0.27% of 290,000 active; yeast membranes, quenched prenylated peptide cleavage fluorescence; Q03530;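 active = fall in fluorescence gain of 50% or more versus controls, with final raw signal at or below 3038400; inconclusive = same 50% fall but final raw signal above 3038400; inactive = fall in fluorescence gain under 50%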;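 also: plate controls were neutral control wells for no effect and wells lacking membranes for full effect; tested at 10 µM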
Target sequence (Q03530 whole entry, looked up): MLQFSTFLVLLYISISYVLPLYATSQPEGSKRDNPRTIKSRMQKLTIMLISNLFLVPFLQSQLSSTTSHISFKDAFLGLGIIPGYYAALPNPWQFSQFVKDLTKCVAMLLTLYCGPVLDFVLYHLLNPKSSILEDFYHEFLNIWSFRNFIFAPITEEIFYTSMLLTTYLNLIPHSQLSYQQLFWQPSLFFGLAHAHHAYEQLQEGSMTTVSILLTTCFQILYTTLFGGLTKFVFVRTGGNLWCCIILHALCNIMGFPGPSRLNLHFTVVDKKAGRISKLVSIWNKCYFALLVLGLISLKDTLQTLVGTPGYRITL
MT1-MMP act inh: MT1-MMP (human) activation inhibition; 0.061% of 360,000 active; GFP/RFP ratio change, % at 20 µM; P50281; HT1080 RFP-PRO-GFP cells, GFP/RFP ratio fluorescence, overnight; percent of plate control window, DMSO zero;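 active = GFP/RFP ratio change of at least 30% with cell ATP level not reduced by more than half and red fluorescence within 50% of control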; also: strong numbers were not always called active
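Assay system: RFP-PRO-GFP reporter HT1080 cells; read-out basis: GFP/RFP fluorescence ratio; benchmarks: DMSO wells and RFP-L50D-GFP cells; doses: 20 µM single dose, 1% DMSO; schedule: overnight cell settling, then overnight compound exposure, 37 °C, 5% CO2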
eIF4H FP inh retest: recorded beside eIF4H FP inh, whose call it bears; inhibition, %; compound at 20 µM; confirmation average;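 mean of two retest wells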
PABP FP inh retest: further read-out of PABP FP inh, marked with its call; inhibition, %; compound at 20 µM; confirmation repeats;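 mean of two retest wells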
MT1-MMP act inh RFP: recorded beside MT1-MMP act inh, whose call it bears; RFP signal change, %; measured here: RFP expression control read;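 0 = vehicle wells; hits needed this value within 50% of zero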
The depositor's hits bear a star; i = inactive; ? = inconclusive; / = not tested or not shown; & = joins results of further samples; [ ] = another dose, or the depositor's remark.

SMILES	CSC inhib	UUG fidelity	PABP FP inh	eIF4H FP inh	Env fusion inh	Rce1 inh	MT1-MMP act inh	MT1-MMP act inh RFP	others
CCCNC(=O)[C@@H]1CCCN1C(=O)[C@@H]1Cc2ccccc2CN1	-2	-12	3	4	-7	i	-1	1
CC1(C)Cc2c(cnn2-c2cccc(F)c2)C(NC(=O)Cn2cccn2)C1 (centres undefined)	-14	-8	5	-5	2	i	-1	2
O=C(CSc1nnc(-c2cccnc2)o1)Nc1nccs1	3	-21	/	/	-10	i	0	4
Cc1c(C#N)c2ccccc2n1CC(=O)NCc1ccccc1	-7	-11	7	-3	/	i	3	0
COc1ccc(C2N(c3ccc(C)cc3)CCN2c2ccc(C)cc2)cc1O	-3	/	-6	-5	-32	i	4	2
CCOC(=O)C1CCN(C(=O)c2oc3ccc(S(=O)(=O)N4CCCCCC4)cc3c2C)CC1	7	-10	-4	-8	6	i	8	1
O=C(OC(c1ccccc1)c1nccc2ccccc12)c1cc([N+](=O)[O-])cc([N+](=O)[O-])c1 (centres undefined)	-2	-16	-9	-2	-8	i	-7	-14
Cc1ccc(S(=O)(=O)NC(C(=O)OCC(=O)NC2CCS(=O)(=O)C2)C(C)C)cc1 (centres undefined)	-9	-4	1	-14	-2	i	-4	0
Cc1c(-c2ccc(F)cc2)nc(N)c(C#N)c1-c1ccco1	0	-7	27	20	23	i	-25	5
CCCCNC(=O)NNC(=O)c1ccc(F)cc1	2	-8	10	-6	/	i	1	4
CC(=O)N1CC2(C)CN(C(C)=O)CC(C)(C1)C2=O	-7	-9	-2	6	-51	i	-10	-9
CC(C)c1nc(=S)c2ccccc2[nH]1	-13	-32	12	-5	-193	/	-2	1
CC(=O)Nc1ccc(NC(=O)CSc2nnc(NC(=O)Cc3ccc(F)cc3)s2)cc1	-29	7	15	-1	/	i	1	1
CCOC(=O)c1cccc(C2=CC(=O)C[C@H](c3ccc(OC)c(OC)c3)C2)c1	-11	4	/	/	8	/	0	-13
CCOc1ccc(C2CC(c3ccc(OC)c(OC)c3)n3nc(N)nc3N2)cc1 (centres undefined)	-28	-23	-14	-11	-28	i	2	0
O=C(CCCN1C(=O)CSc2ncccc21)N1CCN(Cc2ccccc2)CC1	-7	-5	-13	-4	5	i	-1	3
CC(C)Oc1ccc(Cc2cnc(N)nc2N)cc1	-1	-24	5	-5	-38	i	-4	3
CN1CCC(CO)(Cc2ccccc2)CC1	-8	/	-6	3	6	i	-2	1
OC(c1ccc(Cl)c(Cl)c1)c1ncc(-c2cccc(F)c2)[nH]1 (centres undefined)	/	5	/	/	8	/	9	0
CN1CCN(c2nc(-c3ccco3)cc(C(F)(F)F)n2)CC1	-8	6	2	6	/	i	-1	-1
COc1ccccc1CCC(=O)Nc1ccc2c(c1)c(=O)n(C)n2Cc1ccc(F)cc1	/	-4	/	/	-8	/	-3	-10
CCOC(=O)c1cn(CC)c2ccc(Br)cc2c1=O	-11	-14	28	-11	-31	i	-2	-1
CC(/C=N/N1C(=O)CSC1=S)=C\c1ccccc1	3	/	-6	-13	5	i	6	13
Cc1ccc(CC(=O)Nc2nc3ccccc3[nH]2)cc1C	11	-6	1	4	/	i	5	5
Cn1c(CN2CCCC2)nc2cc(NC(=O)c3cccs3)ccc21	-10	/	3	-4	-9	i	6	5
CCOc1ccc(NC(=O)c2cnsn2)cc1	/	-44	-5	-3	/	/	-1	4
Cn1cccc1C(=O)Nc1nccs1	-8	-15	16	-8	-64	i	-1	2
COc1cccc(/C=C2\SC(=N)N(c3ccc(F)cc3)C2=O)c1	9	-16	-1	0	-6	i	2	4
O=C(NCCOc1ccc(Cl)cc1)C1CC(=O)N(c2ccc(F)cc2)C1 (centres undefined)	-2	-2	0	2	/	i	6	-4
O=C(C=C=Nc1ccccc1)C(=O)N=C=Cc1ccccc1	?	3	7	-7	-13	i	0	0
CC(=O)C1=C(C)Nc2cc(C(F)(F)F)ccc2S1	-4	-6	-2	-5	/	i	-1	8
O=C(Nc1ccc(CN2CCCCC2)cc1)Nc1ccccc1Cl	/	/	-7	-4	9	i	-1	-3
Cc1ccc(CNC(=O)c2cc(-c3ccccc3C)nn2CC2CC(c3cccnc3)=NO2)cc1 (centres undefined)	/	-4	/	/	37	/	-2	0
CCn1c2ccccc2c2cc(NC(=O)CNCc3ccccc3OC)ccc21	71	-7	10	5	17	i	-8	-14
CN(c1ccc(OCC(=O)NC2=NCCS2)cc1)S(=O)(=O)c1ccc(F)cc1	9	-10	2	-14	0	i	2	2
Cc1cc(=O)oc2cc(OCC(=O)OCC(=O)NCc3ccc4c(c3)OCO4)ccc12	-7	-1	-10	-4	-51	i	12	13
c1ccc(CN2CCN(c3ncnc4nc[nH]c34)CC2)cc1	8	-20	-2	-2	1	i	-4	-3
O=C(CN(Cc1ccco1)C(=O)CNS(=O)(=O)c1ccccc1)NCc1ccc(F)cc1	21	-1	2	-9	/	i	-3	-2
COc1cc(NS(=O)(=O)c2ccc3ccccc3c2)c2ncccc2c1	53	-28	3	10	?	i	0	-7
COC(=O)c1scc2c(Oc3ccccc3)cc(C(F)(F)F)nc12	4	/	-1	-25	/	i	/	/
CS(=O)(=O)n1nc(OC(=O)c2cccs2)cc1N	-4	-22	5	8	/	i	5	4
CCCCOc1ccc(C(=O)NCCc2cccs2)cc1	4	/	3	13	/	i	4	1
CCOc1ccc(N(C(=O)C2CCCO2)C2C=CS(=O)(=O)C2)cc1 (centres undefined)	-10	/	-12	-3	11	i	1	0
COc1ccc(CSCC(=O)N/N=C/c2ccc(OCC(=O)N3CCCCC3)cc2)cc1	2	6	27	7	/	i	2	-6
COc1ccc(N2CCN(C(=O)c3c(C)nn(-c4ccccc4)c3C)CC2)cc1	-15	/	1	-2	7	i	0	-1
O=S(=O)(c1ccc(F)cc1)N1CCN(C(=S)NC2CCCC2)CC1	-6	/	7	-4	2	i	-3	-7
COc1ccc(NC(=O)CSCc2cc(=O)n3nc(C4CC4)sc3n2)cc1	-5	-6	-2	0	-1	i	-2	2
CN(CCc1ccccc1)C(=O)c1ccc(NC(=O)Cc2cccc(NC(=O)C3CCN(S(=O)(=O)c4cccc([N+](=O)[O-])c4)CC3)c2)cc1	/	-19	/	/	-2	/	3	1
CC(C)(C)C(=O)Nc1ccccc1C(=O)NCCC(=O)Nc1ccccc1	-10	-5	/	/	-28	i	4	-2
Cc1ccc2c(nc3s/c(=C/c4cccs4)c(=O)n32)c1C	/	-19	5	13	/	/	-2	3
Other structures:
SMILES	CSC inhib	UUG fidelity	PABP FP inh	eIF4H FP inh	Env fusion inh	Rce1 inh	MT1-MMP act inh	MT1-MMP act inh RFP	others
COc1ccc(NC(=O)Nc2ccc3oc(C)nc3c2)cc1	/	/	-5	0	-32	i	3	5
OCCn1c(-c2ccccc2)csc1=Nc1ccccc1	1	/	6	-11	18	i	-6	-17
COc1ccc(CNC(=O)CC2C(=O)NCCN2C2Cc3ccccc3C2)cc1 (centres undefined)	-9	-13	8	-5	61*	i	-5	0
Cc1ccc(C(=O)Nc2ccc3nc(C)sc3c2)s1	-19	-18	2	4	/	i	4	3
O=C(Nc1c2c(nn1-c1ccccc1)CS(=O)(=O)C2)c1ccco1	3	-21	-8	-7	6	i	-3	1
Nc1ccc(N)c(C(=O)O)c1	-9	-5	/	/	/	i	-17	2
O=S(=O)(c1ccccc1)N1CCN(c2cc(-c3ccccc3)nc3ncnn23)CC1	/	-11	-4	-12	-11	i	6	-18
CCSC1=C(C#N)C2(CCCC2)C(C#N)=C(N)N1	0	-17	7	-3	/	i	3	-4
CCc1noc(C)c1C(=O)OCC(=O)c1ccc(NC(C)=O)cc1F	-17	6	/	/	6	/	-5	-6
CC1CCN(C(=O)CSc2nnc(CN3CCOCC3)n2-c2ccccc2)CC1	6	10	-3	2	-27	i	-5	1
Cc1[nH]c(=O)[nH]c(=O)c1S(=O)(=O)N1CCN(c2ccccc2F)CC1	-11	-15	4	-4	/	i	-2	4
CCNS(=O)(=O)c1ccc(NC(=O)c2ccc(Cn3cc(Br)cn3)o2)cc1	-8	-2	-2	8	/	i	3	-1
c1cc(OCCCN2CCCCC2)ccc1CN1CCCCC1	-7	18	19	13	-47	i	1	3
COC(=O)c1ccccc1NC(=O)c1ccc2c(c1)C(=O)N(Cc1ccco1)C2=O	-7	-1	/	/	/	i	4	5
CCO[C@@H]1OC(C(=O)N2CCN(C)CC2)=C[C@H](c2ccc(C(F)(F)F)cc2)[C@H]1CCCO	5	1&-12	6	6	1[16.7 µM]	i	-1	-2
O=C(CCCC(=O)N(CC(=O)NC1CCCC1)c1cccc(F)c1)Nc1ccccn1	-20	-9	6	3	-13	i	2	6
Cc1cc(NC(=O)Cn2c(=O)n(CCCCC(=O)NC3CCN(Cc4ccccc4)CC3)c(=O)c3ccccc32)n[nH]1	-21	/	6	5	-27	i	/	/
COc1ccc(NC(=S)Nc2cccc(Cl)c2Cl)cc1OC	-14	/	9	-4	6	i	-3	-2
COc1ccc(C(=O)OCC(=O)NC23CC4CC(CC(C4)C2)C3)c(O)c1	/	-4	/	/	7	/	7	-3
CCN(C[C@H]1N[C@@](CC)(C(=O)OC)[C@H]2C(=O)N(Cc3ccccc3)C(=O)[C@@H]12)S(=O)(=O)c1ccccc1	/	-11	/	/	42	/	-3	-1
Cc1ccc2cc(CCNC(=O)C(C)(C)C)c(=O)[nH]c2c1	-12	-13	2	1	14	i	2	2
O=C(NC1CCCCC1)N1CCC(c2nc(-c3ccc(S(=O)(=O)N4CCCC4)cc3)no2)CC1	0	-21	8	-10	/	i	-6	-18
NS(=O)(=O)c1ccc(CCNCC#Cc2ccccc2)cc1	-5	-10	6	8	-1	i	1	1
O=[N+]([O-])c1ccc(Cl)cc1N/N=C/c1ccncc1	3	2	8	9	3	i	3	-4
Cc1ccc2c(c1)N(CCCC(=O)NCc1cccnc1)C(=O)CO2	0	-22	-13	5	2	i	1	-1
COC(=O)N1CCc2c(sc(NC(=O)C3=COCCO3)c2C#N)C1	-12	-16	/	/	-29	i	2	-9
COc1ccc(N2CCN(Cc3nc4ccccc4n3C)CC2)cc1	-1	/	52	1	22	i	/	/	eIF4H FP inh retest=-12;PABP FP inh retest=-2
CC(C)Cn1c(=O)c(C(=O)N/N=C/c2cccc(F)c2)c(O)c2ccccc21	15	-10	6	-2	20	i	-2	-8
C=CCn1c(CNC(=O)c2ccccc2F)nnc1SCC(=O)N1CCOCC1	12	-9	-4	2	/	i	0	1
Cc1cc(F)ccc1NC(=O)C(C)n1c2ccccc2c2nc(=O)cc(C)n21 (centres undefined)	-20	-8	-1	-2	-6	i	1	0
CCCCn1c(=O)c(CCC(=O)OCC(=O)Nc2cccc3ccccc23)nc2ccccc21	/	-8	10	-4	-4	i	2	3
COc1ccc(NC(=O)CN2C(=O)NC(C)(c3ccc(C)cc3)C2=O)cn1 (centres undefined)	-9	-18	/	/	-1	/	2	1
O=C(CN1C(=O)NC2(CCCCCC2)C1=O)c1ccccc1	-5	-2	13	2	9	i	-4	6
CCCCOC(=O)CSc1nc(N)c(C#N)c(-c2ccc(OC)cc2)c1C#N	23	-15	-3	-1	0	i	3	0

Assay outcomes as filed in PubChem BioAssay.

An excerpt; rates above refer to the full screens.
